# Mtb hypoxia inh – reduces hypoxia-regulated biosensor signal in M. tuberculosis; 0.1% of 300,000 active; M. tuberculosis hypoxia-regulated fluorescent reporter, fluorescence; fluorescence inhibition, % (test concentration not listed);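 active = 35 to 45% if threefold the growth effect, above 45% if 1.5-fold the growth effect; inactive = the rest, general growth blockers included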;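 also: wells of about 50 µL received 100 nL stock; 0% = vehicle wells and 100% = reference inhibitor wells; whole bacteria with a GFP reporter of the hypoxia response; strong numbers were not always called active; many hits fall short of the cut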
# BJeLR viability – BJeLR cell viability loss | BJeLR (HRASV12) viability, CellTiter-Glo ATP luminescence, 48 h; reference of the scale not given here | inhibition, % (no concentration beside the values) | 0.17% of 300,000 active | AID 1554;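 active = replicate mean above 50%; inconclusive = above 50% but judged a plate artefact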;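 also: 50 nL library stock added to about 25 µL; numbers are from one replicate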
# ugtP null kill – compounds lethal to S. aureus RN4220 ugtP deletion mutant. OD600 growth, 16 h; some inactives read as strong as hits. growth inhibition, % (concentration not given with the values). 0.54% of 330,000 active. AID 1259309;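 active = z-score under -3 and OD600 up to 0.15 on both plates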;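 also: plate controls were untreated wells for no effect and antibiotic for full effect; wells of about 80 µL received 100 nL stock; the first replicate is given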
# Autofluor counter – flagged as autofluorescent in microsphere protease counterscreen; compound autofluorescence counterscreen, microsphere flow cytometry; hits give high values; fluorescence intensity (test concentration not listed); 3.1% of 360,000 active;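 active = at least 3 SD above the mean of all compounds, about 16000 in these data; inconclusive = too few beads counted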;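 also: 100 nL of 1 mM stock went into each well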
# RN4220 kill – S. aureus RN4220 growth inhibition | OD600, 16 h | inhibition, % (test concentration not listed) | 0.33% of 330,000 active;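 active = z-score of -3 or lower and OD600 up to 0.18 on both plates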;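 also: plate controls were untreated cells for no effect and reference antibiotic for full effect; stock transfer was 100 nL into about 80 µL; one replicate is shown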
# PrP 5UTR inh – suppresses PrP 5' UTR mRNA reporter expression; cell-based PrP 5' UTR mRNA reporter, plate reader; inhibition, % (test concentration not listed); 0.35% of 340,000 active;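 active = every replicate at 50% or more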;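 also: 0 = median of the neutral control wells; tested in H4 reporter cells; numbers are from one replicate; inactives centre near -14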
# Mtb hypoxia inh growth – second read-out of Mtb hypoxia inh, no call of its own (marks repeat the call); growth inhibition, %; measured here: M. tuberculosis growth (absorbance);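 0% = vehicle and 100% = reference antibiotic; read after six days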
# * = called active by the depositor; ? = inconclusive; / = not tested or not shown; & = joins results of further samples.
No.	smiles	Mtb hypoxia inh	Mtb hypoxia inh growth	BJeLR viability	ugtP null kill
1	CC1(c2nnc(Cc3ccccc3)o2)CC(c2ccc(Br)cc2)=NO1 (centres undefined)	17.3	14.2	0.3	2.8
2	O=[N+]([O-])c1cc(S(=O)(=O)/N=C(/c2ccccc2)N2CCOCC2)ccc1Cl	/	/	-5.6	/
3	O=C(CCc1c[nH]c2ccccc12)N[C@@H](Cc1c[nH]c2ccc(O)cc12)C(=O)O	5.3	4.2	-8.9	4.2
4	CC(C)CN(C(=O)COC(=O)Cc1c[nH]c2ccccc12)C1CCS(=O)(=O)C1 (centres undefined)	6.2	3.0	-17.6	8.4
5	COc1ccccc1N1CCN(C(=O)C2CC(=O)N(c3ccccc3)C2)CC1 (centres undefined)	14.1	3.6	-8.0	-5.5
6	CCOc1ccccc1OCCC(=O)OCC(=O)Nc1c(C)cc(C)cc1C	7.2	-5.4	3.3	5.1
7	Cc1oc(CSCC2CCCO2)cc1C(=O)O (centres undefined)	/	/	1.6	-0.3
8	COc1ccc(C(=O)NC2CC2)cc1OC1CCN(Cc2ccccc2O)CC1	5.2	13.6	1.6	0.5
9	COc1cc(OC)c(OC)cc1CNCCNC(=O)c1ccco1	6.0	0.2	-11.9	8.2
10	COc1ccc(C(=O)Oc2c(OC)cc(C(=S)N3CCOCC3)cc2OC)cc1	-5.5	-5.0	-3.3	-0.5
11	CCCCOc1ccc2c(c1)/C(=C(\C(Cl)=C(Cl)Cl)[N+](=O)[O-])N2	0.5	-0.1	5.7	2.6
12	CCn1c(SCC(=O)Nc2cc(C)on2)nnc1-c1ccc(C)cc1	4.8	6.6	3.5	4.5
13	Nc1nnc(SCCOc2cccc(Br)c2)s1	11.0	11.1	-0.6	7.4
14	CCOC(=O)c1c(-c2ccccc2)oc2ccc(OC(C)=O)cc12	4.8	10.3	-6.7	26.2
15	COc1ccc(-c2nn(C)c(=O)c3ccccc23)cc1NS(C)(=O)=O	10.5	2.1	-2.2	10.2

No.	Autofluor counter	RN4220 kill	PrP 5UTR inh
1	3924	4.2	-1.5
2	2623	/	-19.7
3	3458	1.2	/
4	6836	4.2	-16.5
5	3794	4.1	-11.0
6	?	6.5	-13.1
7	4663	1.7	-2.7
8	4364	-2.5	-3.6
9	3797	-2.1	-4.9
10	4220	4.2	-18.1
11	3469	5.2	-12.7
12	5772	0.5	-16.4
13	9681	0.4	-15.0
14	4537	-1.2	-3.0
15	4623	3.8	-22.1

# Continued.
No.	smiles	Mtb hypoxia inh	Mtb hypoxia inh growth	BJeLR viability	ugtP null kill
16	NS(=O)(=O)c1ccc(NC(=S)NNC(=O)CCC(=O)Nc2ccccc2Cl)cc1	0.4	1.4	0.9	1.0
17	CSc1nc(-c2ccccc2)cc(C(F)(F)F)c1C#N	-2.3	6.5	3.3	-2.8
18	O=C(COC(=O)c1ccc(F)cc1Cl)NCc1ccco1	8.8	3.9	/	1.5
19	CCOC(=O)C1=C(C)N(C)C(=O)NC1c1c(C)nn(-c2ccccc2)c1C (centres undefined)	/	/	-2.3	-6.1
20	CC(=O)Nc1ccc(NC(=O)c2cccc(C(=O)OC(C)C)n2)cc1	1.0	-0.2	-5.0	-9.4
21	Cc1ccc(OCc2nnc(SCC(=O)NCc3ccccc3)n2C)cc1	/	/	10.6	-4.4
22	CN(Cc1ccc(O)cc1)C1CCCCC1	-2.2	11.0	-0.7	-3.5
23	Cc1ccc(S(=O)(=O)N2c3cc(C)ccc3OCC2C(C)(C)C)cc1 (centres undefined)	-1.8	0.9	7.8	-13.5
24	Cc1cc2nccc(-c3ccncc3)n2n1	-1.9	3.4	-20.2	2.9
25	COc1ccc(S(=O)(=O)NN=C(C)c2ccc(C)o2)cc1	5.2	4.5	/	4.4
26	COc1cc(/C=C2\C(=N)N3N=C(C)SC3=NC2=O)cc(OC)c1OCCOc1ccccc1C	7.1	2.5	-11.3	5.1
27	COc1cccc(C(NC(C)=O)c2ccc3cccnc3c2O)c1 (centres undefined)	/	/	22.1	/
28	CCc1ccccc1NC(=O)NC1CC2CCC(C1)N2Cc1ccco1 (centres undefined)	4.8	7.2	4.3	5.1
29	Cn1c(C(=O)c2ccccc2[N+](=O)[O-])nc2ccccc21	2.4	12.0	-0.5	7.9
30	CCCCN(C)C(=S)Nc1ccsc1C(=O)OC	7.2	11.1	4.1	3.9

No.	Autofluor counter	RN4220 kill	PrP 5UTR inh
16	5675	1.1	-7.8
17	2476	5.4	-14.7
18	6421	4.1	-29.5
19	2936	-0.3	-7.9
20	4490	1.1	-18.7
21	3267	-22.0	6.2
22	10877	0.8	-13.4
23	4511	1.8	-7.7
24	3343	5.9	1.6
25	/	1.8	/
26	3860	12.0	-22.6
27	3182	/	30.7
28	4713	1.4	-53.8
29	3884	3.2	-29.4
30	5105	13.3	-9.2

# Full records, quoted from the list. Order of values: Mtb hypoxia inh, Mtb hypoxia inh growth, BJeLR viability, ugtP null kill, Autofluor counter, RN4220 kill, PrP 5UTR inh
# Record of `Cc1ccc(OCc2nnc(SCC(=O)NCc3ccccc3)n2C)cc1` → /, /, 10.6, -4.4, 3267, -22.0, 6.2
# Record of `COc1ccc(S(=O)(=O)NN=C(C)c2ccc(C)o2)cc1` → 5.2, 4.5, /, 4.4, /, 1.8, /
# Record of `O=C(COC(=O)c1ccc(F)cc1Cl)NCc1ccco1` → 8.8, 3.9, /, 1.5, 6421, 4.1, -29.5
# Record of `CC(=O)Nc1ccc(NC(=O)c2cccc(C(=O)OC(C)C)n2)cc1` → 1.0, -0.2, -5.0, -9.4, 4490, 1.1, -18.7
# Record of `Cc1ccc(S(=O)(=O)N2c3cc(C)ccc3OCC2C(C)(C)C)cc1` (centres undefined) → -1.8, 0.9, 7.8, -13.5, 4511, 1.8, -7.7

# Remaining list, next part
No.	smiles	Mtb hypoxia inh	Mtb hypoxia inh growth	BJeLR viability	ugtP null kill
31	Oc1ccc(C=Nn2c(COc3ccccc3)n[nH]c2=S)cc1O	10.4	-1.8	/	-10.4
32	CCCSc1ccc(C2C3C(=O)N(CC)C(=O)C3[C@]3(C(=O)OC)CCCCN23)cc1OC (some centres undefined)	16.5&7.5	10.9&2.2	/	3.0&-2.1
33	CCn1cc(CCC(=O)NC2CCCC2)c2ccccc21	4.3	2.7	-1.2	14.5
34	CN(C)CCNC(=O)C(=O)NCC1OCCN1S(=O)(=O)c1ccc([N+](=O)[O-])cc1 (centres undefined)	7.6	8.7	2.7	-0.1
35	CN(CC(=O)Nc1cccc(S(=O)(=O)NC2=NCCCCC2)c1)Cc1ccc(C(C)(C)C)cc1	18.0	7.4	-1.3	2.3
36	CCC(C)NC(=O)CN(c1ccc(Cl)c(Cl)c1)S(C)(=O)=O (centres undefined)	9.3	3.0	3.4	12.2
37	O=C(Nc1nc(-c2ccccc2)cs1)c1cccs1	/	/	3.6	19.9
38	CCOC(=O)c1c(NC(=O)c2ccn(CC)n2)sc2c1CCCC2	10.9	5.1	5.5	-4.9
39	Cc1ccc(CNC(=O)C2CCN(S(=O)(=O)N3CCCC3)CC2)cc1	7.7	2.0	5.6	-0.1
40	O=C(COC(=O)C=Cc1cccs1)NC(=O)Cc1ccccc1	12.4	7.7	/	-4.5
41	CN1CCC/C1=C/C=C1\SC(=S)NC1=O	41.2*	-2.6*	/	10.3
42	COc1cc(C(=O)NC(=S)N2CCN(C)CC2)cc(OC)c1OC	1.1	3.4	/	4.1
43	COc1ccc(S(=O)(=O)n2nc(OC(=O)c3ccccc3)cc2N)cc1	7.8	-3.3	4.7	4.2
44	CC(C)Oc1ccc2c(c1)OC(c1ccccc1)(C(F)(F)F)NC2=O (centres undefined)	8.8	6.1	5.3	-28.2
45	O=C(NCc1cc(C(F)(F)F)ccc1Cl)c1cccc2c1C(=O)c1ccc(N3CCCCC3)cc1S2(=O)=O	15.2	7.7	/	-0.6

No.	Autofluor counter	RN4220 kill	PrP 5UTR inh
31	/	6.6	/
32	/	9.6&-3.8	/
33	3461	5.5	-34.2
34	2148	8.0	-22.0
35	5448	9.3	-12.7
36	4844	4.0	-29.6
37	3095	28.7	-78.6
38	12154	-6.8	-16.1
39	6035	3.9	-19.5
40	/	3.1	/
41	2263	1.7	-27.8
42	3450	-0.4	-25.8
43	3649	1.8	-28.1
44	9593	7.4	-7.0
45	3100	9.0	-11.1

# Other compounds
No.	smiles	Mtb hypoxia inh	Mtb hypoxia inh growth	BJeLR viability	ugtP null kill
46	COc1cccc(OC)c1C(=O)NC(=S)N1C[C@H]2C[C@H](C1)c1cccc(=O)n1C2	/	/	-3.8	6.1
47	Cc1ccc(CCN2CC(C(=O)NCCC(C)C)CC2=O)cc1 (centres undefined)	-6.5	-3.0	-3.4	1.4
48	CCN(CC)CC(C)OC(=O)c1cc(OC)c(OC)c(OC)c1 (centres undefined)	7.5	6.2	8.6	1.4
49	CCCCC1CCC(C(=O)N(CC(C)C)c2c(N)n(CCCC)c(=O)[nH]c2=O)CC1 (centres undefined)	4.5	-0.4	-1.5	-2.0
50	O=C(NCCCN1CCCC1=O)C1CCN(S(=O)(=O)c2c(Cl)cccc2Cl)CC1	7.0	-10.1	3.8	10.0
51	N/C(=N\c1nc2ccccc2o1)NC(=O)/C=C/c1ccccc1	12.8	14.0	7.6	-15.6
52	Cc1ccccc1S(=O)(=O)Cc1ccc(C(=O)NCCN(C)Cc2ccccc2)o1	-0.7	-8.3	8.3	1.1
53	COc1cc(OC)cc(C(=O)N2CCN=C2SCc2cccnc2)c1	/	/	-1.3	3.8
54	C/C(=C\C(=O)c1ccccc1)NNC(=O)c1ccc(Cl)cc1	6.7	2.0	-12.8	13.4
55	O=C(COC(=O)c1ccccc1O)Nc1cccnc1Cl	17.3	3.6	-26.7	3.9
56	Cc1cccc(N2Cc3ccccc3C2=NC(=O)c2ccc(Cl)nc2)c1	2.4	-5.1	4.7	-8.3
57	CCCCOc1ccc(C(=O)Nc2ccc(CN3CCOCC3)cc2)cc1	4.2	15.9	7.1	7.3
58	CCC(C)(C)n1nnnc1C(c1ccncc1)N1CCC(C)CC1 (centres undefined)	3.6	6.6	8.8	-0.6
59	CSC1=NCCN1C(=O)c1c(F)cccc1F	/	/	7.5	2.3
60	COc1cc2cc(C(c3nnnn3C3CCCC3)N3CCCCCC3)c(=O)[nH]c2cc1OC (centres undefined)	-1.3	2.1	-18.7	-3.0

No.	Autofluor counter	RN4220 kill	PrP 5UTR inh
46	4031	-1.1	-8.6
47	3873	-2.6	8.1
48	19405*	1.7	3.1
49	4750	-1.9	-11.1
50	6171	1.4	-4.4
51	4161	-6.8	-15.2
52	4228	0.7	-6.8
53	5703	-0.7	-11.9
54	/	-0.6	-11.7
55	1960	5.4	-4.7
56	2860	0.6	-22.7
57	3359	0.9	-21.2
58	3052	-2.1	14.8
59	3166	2.0	-6.9
60	20987*	6.0	-34.2

# The results go on:
No.	smiles	Mtb hypoxia inh	Mtb hypoxia inh growth	BJeLR viability	ugtP null kill
61	COc1ccc(OC)c(C(=O)NC(CC(N)=O)c2ccc(NCC3CC3)c([N+](=O)[O-])c2)c1 (centres undefined)	21.7	4.0	7.2	5.9
62	O=C(O)CCN1C(=O)C2C3c4ccccc4C(c4ccccc43)[C@@H]2C1=O (some centres undefined)	8.4	0.2	5.2	0.0
63	COc1cc(OC)cc(-c2c(-c3ccc(F)cc3)c3cc(-c4ccc5c(c4)OCCO5)ccc3n2C)c1	2.1	2.8	/	6.9
64	CC(=O)N1N=C(c2ccccc2)CC1c1ccccc1 (centres undefined)	4.6	12.8	4.7	5.7
65	COc1ccc(-c2csc(N3C(=N)SCC3=O)n2)cc1	1.7	0.5	5.4	-8.1
66	CC1CN(C(=O)COC(=O)c2cccc(S(=O)(=O)N3CCc4ccccc43)c2)CC(C)O1 (centres undefined)	13.4	4.3	/	6.3
67	CCCCNC(=O)N(O)C1N(/N=C/c2ccccc2F)C(=S)SC1(C)C (centres undefined)	/	/	1.4	/
68	CC(C)C(NS(=O)(=O)c1ccccc1)C(=O)N1CCCC1 (centres undefined)	5.4	18.0	10.7	10.2
69	O=C(CSc1nnnn1-c1ccccc1)NC(=O)NCc1ccco1	/	/	1.9	4.4

No.	Autofluor counter	RN4220 kill	PrP 5UTR inh
61	4007	4.6	-26.1
62	3411	3.3	-17.6
63	3685	-13.8	3.3
64	3608	5.5	-45.0
65	8083	3.1	-69.4
66	3794	6.0	-12.3
67	3867	/	-12.5
68	4384	-0.7	-19.8
69	3664	3.6	-26.1

# From PubChem
